YjeE inh: qHTS Assay for Inhibitors of YjeE. tRNA threonylcarbamoyladenosine biosynthesis protein TsaE (Escherichia coli (strain …. purified YjeE, fluorescence polarisation of a bound ADP probe. Potency, µM. 71,000 tested, 0.05% active. AID 605, 2007; active = well fitted falling curve; inconclusive = weaker or top-dose-only fall, or a rising curve; inactive = flat or poorly fitted curve;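 further: top concentration of the series not given in the record; excess ADP was the control for the full effect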
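Fluorescence polarization of a BODIPY Texas Red–ADP probe (2 uM) bound to purified YjeE (10 uM) was read after 15 min room-temperature incubation with compounds. Loss of polarization marks inhibitors; ADP serves as titrated control.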
PK Bst: Pyruvate Kinase; 51,000 tested, 1.2% active; Potency, µM; partly purified Bacillus stearothermophilus pyruvate kinase, luminescence ATP production; ribose 5-phosphate activator present at AC10; in the data active means potency below about 11 µM; inconclusive means mostly about 12 µM to 25 µM; inactive means weaker than that;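 the screen sought inhibitors and activators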;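 further: potency means the concentration at half of the fitted maximal effect; scaled between full activation by ribose 5 phosphate and full inhibition by luteolin; about four in five hits inhibit and the cells do not say which; series up to 57 µM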
Starred values were filed as active, the others as inactive; i = inactive; u = inconclusive; x = not tested or not shown.

structure	YjeE inh	PK Bst
CN(CC(=O)NCCN1CCCCCC1)S(=O)(=O)c1cccc2nsnc12	i	i
Cc1cc(Br)ccc1SCC(=O)OCC(=O)N1CCN(C(=O)c2ccco2)CC1	i	>57
N[C@@H](Cc1cccc([N+](=O)[O-])c1)C(=O)O	i	x
CC(=O)C1=C(C)NC(SCC(N)=O)=C(C#N)C1c1cccnc1 (stereo not given)	i	x
COc1ccc(CC(=O)Nc2c3c(nn2-c2ccccc2C)CS(=O)C3)cc1 (stereo not given)	i	>57
O=C(CSc1nnnn1C1CCCC1)Nc1ccc2c(c1)OCO2	i	>57
COc1cccc(NC(=O)CN2CCN(c3ccccc3F)CC2)c1	i	>57
CS(=O)(=O)N1CCc2cc(S(=O)(=O)Nc3ccc4oc5c(c4c3)CCCC5)ccc21	i	>57
COCCn1nnnc1C(c1ccc(OC)c(OC)c1)N1CCN(c2nc3ccccc3s2)CC1 (stereo not given)	i	>57
COC(=O)c1ccc(-n2nnnc2SCC(=O)Nc2ccccc2OC)cc1	i	>57
Cc1nn(-c2ccc(F)cc2)c2nc(N)c(C#N)c(-c3cccs3)c12	i	i
Cc1cc(C)c(C(=O)CSc2n[nH]c(=O)n2C2CC2)cc1C	i	>57
O=C(O)C1CSC(CCc2ccccc2)N1 (stereo not given)	x	>25.6
O=c1cc(-c2ccc(O)cc2)oc2c([C@H]3O[C@@H](CO)[C@@H](O)[C@@H](O)[C@@H]3O)c(O)cc(O)c12	i	x
COc1ccc(C(=O)N2CCN(c3cccc(Cl)c3)CC2)c(OC)c1	i	>57
O=C(c1ccc([N+](=O)[O-])cc1)[C@@H](Br)[C@@H](Br)c1ccnc2ccccc12	i	x
CC1CC(C)CN(Cc2nc3c(c(=O)n(C)c(=O)n3C)n2CCN2CCOCC2)C1 (stereo not given)	i	>57
Cc1cc(C)c2c(c1)c(C)cc1nnc(SCC(=O)NCc3ccco3)n12	i	>57
CCOC(=O)CNC(=O)CSc1nnc(-c2ccco2)n1Cc1ccco1	i	>57
CCCCSC1=C(C#N)C(c2ccccc2C)C(C(=O)OCC)C(=O)N1 (stereo not given)	i	x
CCC(C)NCC(=O)Nc1ccc(-c2nc3cc(NC(=O)CNC(C)CC)ccc3o2)cc1 (stereo not given)	i	>57
COc1ccc(-c2noc(CSc3ccccc3)n2)cc1OC	i	>57
Cn1c(=O)c2[nH]c(Nc3ccccc3)nc2n(C)c1=O	i	>11.4
C=CCSc1nc(N)c(C#N)c(-c2ccccc2)c1C#N	i	x
COc1ccc(-c2nnn(Cc3nc(N)nc(N4CCCCC4)n3)n2)cc1	i	>57

structure	YjeE inh	PK Bst
Cc1ccc(NC(=O)CN(c2ccc3c(c2)OCO3)S(=O)(=O)c2c(C)n[nH]c2C)cc1	i	x
O=C(c1ccco1)N(CCCN1CCOCC1)c1nc(-c2ccc(Cl)cc2)cs1	i	x
CCOc1ccccc1NC(=O)Cn1c(=O)n(CCC(=O)NC2CCCC2)c(=O)c2ccccc21	i	>57
Cc1cc(C)n(-c2nc3ccccc3n3nnnc23)n1	i	>57
CCOC(=O)N1CCN(C(=O)CSc2nnc(Cn3c(=O)sc4ccccc43)n2C)CC1	i	x
CCN1CCCC1CN=Cc1c(O)n(-c2ccccc2)c(=O)c2ccccc12 (stereo not given)	i	x
O=C(CCCNS(=O)(=O)c1cccc2nsnc12)N1CCCCC1	i	>57
CCN(C(=O)CSc1nnc(Cn2nnc3ccccc32)o1)c1nc(-c2ccccc2)cs1	i	>57
COc1ccc(-c2ncc3ccccn23)cc1	i	x
CCC1Oc2ccc(Cl)cc2N(CC(=O)O)C1=O (stereo not given)	i	>57
CN(C)Cc1cc(C(=O)O)cc(CN(C)C)c1O	i	x
Cc1ccc(NC(=O)c2ccccc2F)nc1	i	i
Cc1ccc(S(=O)(=O)N2CCN(S(C)(=O)=O)C2c2ccccc2)cc1 (stereo not given)	i	x
Cn1nnc2cc(C(=O)NCc3ccco3)ccc21	i	>57
Cc1cccc(-n2nc3c(c2NC(=O)c2ccc(Br)o2)CSC3)c1C	i	>57
CCS(=O)(=O)NCc1ccc2[nH]c3c(c2c1)CCCC3	i	>57
COc1cc(N)ccc1Cc1ccc(N)cc1OC	i	x
COc1ccccc1S(=O)Cc1ccc(C(=O)NCCc2ccc(Cl)cc2)o1 (stereo not given)	i	x
CCS(=O)(=O)N1CCC(NC(=O)C2CCCCC2)CC1	i	>57
NC(=O)c1c(NC(=O)c2cccs2)sc2c1CCCCCC2	i	x
Cc1ccc(C(C(=O)NC2CCCCC2)N2CCOCC2)cc1 (stereo not given)	i	>57
CN(C)c1ccc(-c2nccc(NCc3ccccc3)n2)cc1	i	x
CCOC(=O)N1CCC(N2C(=O)c3ccccc3C2Nc2cc(OC)c(OC)c(OC)c2)CC1 (stereo not given)	i	x
COC(=O)c1ccccc1NC(=O)c1ccc(NS(C)(=O)=O)cc1	i	x
COc1ccc(C2=Nn3c(nnc3-c3ccccc3)SC2)cc1OC	x	>25.6

Single records, as listed above.
Profile of `COc1cc(N)ccc1Cc1ccc(N)cc1OC` = YjeE inh = i; PK Bst = x
Profile of `O=C(c1ccc([N+](=O)[O-])cc1)[C@@H](Br)[C@@H](Br)c1ccnc2ccccc12` = YjeE inh = i; PK Bst = x

Additional records:
structure	YjeE inh	PK Bst
O=C(O)CN1C(=O)CC(Cc2ccccc2)C1=O (stereo not given)	i	>57
O=C(Nc1ccc2snnc2c1)N1CCOCC1	i	>57
CS(=O)(=O)NCc1csc(-c2ccccc2)n1	i	>57
CCC(Oc1ccccc1)C(=O)Nc1ccc(-c2nnc(-c3ccco3)o2)cc1 (stereo not given)	i	>57
CC(C)(CO)N1CCN(C(=S)Nc2ccccc2)CC1	i	x
CCOC(=O)COn1c(=O)c(=O)n(OC)c2ccccc21	i	>57
CCOc1ccc(OCC)c(NC(=O)CSc2nnc(Cn3cnc4ccccc43)n2C)c1	i	>57
O=C(C1CCC(Cn2c(=S)[nH]c3ccccc3c2=O)CC1)N1CCOCC1 (stereo not given)	i	>57
N#Cc1nc(COc2ccc(Cl)cc2)oc1N1CCCCCC1	i	>57
NCCC[C@@H](CC(=O)N[C@@H]1CCCC[C@H]1C(=O)N[C@H](CC(=O)N[C@@H](CCC(=O)O)CC(=O)O)Cc1ccccc1)NC(=O)C[C@H](Cc1ccccc1)NC(=O)[C@@H]1CNCC[C@H]1N	i	x
CNc1ncnc2c1ncn2[C@@H]1O[C@H](CO)[C@@H](O)[C@@H]1O	i	x
Cc1cc(C(=O)N2CCN(C(c3ccccc3)c3ccccc3)CC2)on1	i	x
COCCNC(=O)c1cnn2c(C(F)(F)F)cc(-c3ccc4c(c3)OCO4)nc12	i	>57
Cc1cc(C(=O)CSc2nnc(-c3ccco3)o2)c(C)n1Cc1ccco1	i	>57
Cc1occc1C(=O)Nc1nccs1	i	x
O=C(Nc1nnc(-c2ccncc2)s1)C1CCCO1 (stereo not given)	i	>57
CCc1nc(C)ccc1OCC(=O)NCCCN(C)C	i	>57
Cc1cnn(C(=S)NCc2ccco2)c1	i	>57
c1coc(-c2nc3nc4ccccc4nc3n2-c2ccc3c(c2)OCCO3)c1	x	i
C1CCC2(CC1)OCC1(CO2)COC2(CCCCC2)OC1	i	>57
CCOC(=O)CSc1nnc(Cc2cc(=O)[nH]c(=O)[nH]2)n1-c1ccc(Cl)cc1	i	x
COCCn1c(=O)c(-c2ccc(F)cc2)nc2cnc(Nc3cccc(OC)c3)nc21	i	x
CN(C)C=Nc1ncc2c3ccccc3n(CCN(C)C)c2c1C#N	i	u
O=C(NC1CCCCC1)C1CCCN(S(=O)(=O)c2cccs2)C1 (stereo not given)	i	>57
COc1ccccc1Nc1nc(N)nc(CN2CCC(Cc3ccccc3)CC2)n1	i	>57

A different layout for 2 compounds above.
O=C(O)CN1C(=O)CC(Cc2ccccc2)C1=O (stereo not given)
- YjeE inh: i
- PK Bst: >57
CCS(=O)(=O)N1CCC(NC(=O)C2CCCCC2)CC1
- YjeE inh: i
- PK Bst: >57

Carrying on:
structure	YjeE inh	PK Bst
Cn1c(=O)c2c(nc(CN3CCN(c4ccccc4)CC3)n2Cc2ccccc2Cl)n(C)c1=O	i	>57
Cc1ccc(-n2nc3c(c2NC(=O)c2ccc4c(c2)OCO4)CSC3)cc1	i	>57
COc1ccc(-c2nc3cnc(N4CCN(C)CC4)nc3n(Cc3ccc(F)cc3)c2=O)cc1	i	x
O=C(NC12CC3CC(CC(C3)C1)C2)N1CCC(n2nnc3ccccc32)CC1	i	>57
Cc1cc(C)nc(-n2nc(C)cc2NC(=O)c2cccc(S(=O)(=O)N(C)C)c2)n1	i	>57
FC(F)(F)c1cc(CN2CCCC3(CCNCC3)C2)cc(C(F)(F)F)c1	i	x
CCOC(=O)c1sc(NC(C)=O)c(C(=O)OCC)c1C	i	>57
CCOC(=O)c1cnn2c(C)cc(-c3ccccc3)nc12	i	x
O=C1c2ccccc2S(=O)(=O)N1Cc1nc2ccccc2s1	i	x
COc1ccccc1-c1cc(C(=O)N2CCN(c3ccc(F)cc3)CC2)no1	i	>57
COc1ccc(CCn2c(C)cc3c(c2=O)C(c2ccncc2)C(C#N)=C(N)O3)cc1OC (stereo not given)	i	>57
CCOC(=O)N1CCC(NC(=O)c2cc(S(=O)(=O)N3CCc4ccccc43)cn2C)CC1	i	>57
CCOc1ccc(CCNS(=O)(=O)c2cccc3nsnc23)cc1OCC	i	>57
O=C(CCC1=NS(=O)(=O)c2ccccc2N1)NC1CCCCCCC1	i	>57
CN(C)c1nc(N)c(C(=O)N=C(N)N)nc1Cl	i	x
Cc1cc(NS(=O)(=O)Cc2ccccc2)no1	i	>57
O=C(CSc1ncccc1C(=O)O)NCc1ccc(F)cc1	i	>57
Cc1cc(=O)n2[nH]c(-c3ccccc3)cc2n1	i	x
CCOCC(=O)Nc1ccc(S(=O)(=O)N2CCOCC2)cc1	i	>57
CCSC1(SCC)N=C(N)C2(C#N)C(c3ccccc3)NC(C)=CC12C#N (stereo not given)	i	x
NCCCS(=O)(=O)O	i	x
CCCc1cc(C(=O)Nc2cccc(C(C)=O)c2)no1	i	x
Cc1cccc(CNc2cc(-c3c(C)noc3C)ncn2)c1	i	x
O=C(c1csnn1)N1CCC[C@@]2(CCN(Cc3ccccc3)C2)C1	i	x
Cn1c2c(c3ccccc31)CC/C2=N\O	i	x

structure	YjeE inh	PK Bst
O=C(Nc1ccc(N2CCOCC2)cc1)C1CCN(S(=O)(=O)Cc2ccccc2)CC1	i	>57
Cn1ccnc1C(O)c1ccc(OCc2ccccc2)cc1 (stereo not given)	x	>25.6
COc1ccc(N2C(=O)CCC(C(=O)N3CCCCCC3)C2c2ccc(OC)c(OC)c2)cc1 (stereo not given)	i	>57
CCOC(=O)Cn1c(CCC(=O)O)ccc1-c1ccc(F)cc1	i	x
CN1CCN(/C=N/c2c(C#N)cnn2Cc2ccccc2)CC1	i	>57
NC(=O)SCC(=O)Nc1ccc(Cl)c(Cl)c1	i	x
CCN(CC)CCn1c(=S)[nH]c2ccc(Cl)cc2c1=O	i	>57
CC(C)Cn1c(CN2C(=O)c3ccccc3C2=O)nc2ccccc2c1=O	i	x
Cc1c(NC(=O)C(C)N2CC(C)OC(C)C2)c(=O)n(-c2ccccc2)n1C (stereo not given)	i	>57
CCOC(=O)c1cccc(NC(=O)c2cccnc2)c1	i	x
CCOc1ncccc1C(=O)OCc1nnc(-c2ccccc2)o1	i	>57
C[C@@]12CC[C@H]3[C@H](CC=C4C[C@@H](O)CC[C@@]43C)[C@@H]1CC[C@@H]2N(CCO)CCO	i	x
O=C(c1ccco1)N1CCN(C(c2ccc(Cl)cc2)c2nnnn2CC2CCCO2)CC1 (stereo not given)	i	>57
C/[N+]([O-])=C1\Cc2ccccc2C1=O	i	>57
C[C@@H]1C[C@H]2[C@H]3C[C@@H](F)C4=CC(=O)C=C[C@]4(C)[C@@]3(Cl)[C@@H](O)C[C@@]2(C)[C@@H]1C(=O)COC(=O)C(C)(C)C	i	x
Cn1cnnc1Sc1nc2c(c(=O)n(C)c(=O)n2C)n1Cc1ccccc1Cl	i	>57
COc1cccc(-c2ccc3ncnc(NCCNC(C)=O)c3c2)c1	i	x
CCCCCn1c(SCC2CCCO2)nc2cc(C(=O)N3CCC(C(N)=O)CC3)ccc2c1=O (stereo not given)	i	>57
CCOC(=O)CSc1nnc(CNC(=O)c2cccs2)n1-c1cc(OC)ccc1OC	i	>57
CCOP(C)(=O)C1(C(=O)OCc2ccccc2)CC1 (stereo not given)	i	x
CN(C)C(CNC(=O)CCCc1c[nH]c2ccccc12)c1ccco1 (stereo not given)	i	>57
Cc1ccsc1C=Nc1c(C)n(C)n(-c2ccccc2)c1=O	i	>57
O=C(O)c1ccc(CSCc2ccco2)cc1	i	x
CC(C1CC1)N(C(=O)c1ccccc1O)c1ccccc1 (stereo not given)	i	x

Screens deposited in PubChem BioAssay by National Center for Advancing Translational Sciences (NCATS).

These rows are one share of the data; rates above refer to the full screens.
